FGF22 binding: binders of human FGF22 protein, primary screen, FGF22 synaptogenesis inhibitor project, biophysical, thermal shift, single point; calls only at 9.99 µM; Fibroblast growth factor 22 (Homo sapiens), Q9HCT0; recombinant FGF22 thermal shift, SYPRO orange fluorescence; percent of sucrose octasulfate shift, DMSO zero; hit rate 1.5% among 340,000; AID 651658, 2012;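 active = melting point raised past a set limit in the mean and every replicate; inconclusive = no clear call; three in four hits are not shown here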
Target sequence (Q9HCT0 whole entry, looked up): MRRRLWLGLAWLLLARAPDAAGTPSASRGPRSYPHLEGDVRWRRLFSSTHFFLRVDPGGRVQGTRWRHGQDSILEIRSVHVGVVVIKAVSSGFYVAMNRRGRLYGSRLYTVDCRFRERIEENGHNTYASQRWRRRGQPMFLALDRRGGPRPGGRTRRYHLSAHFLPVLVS
rRNA inh HTS: reduced GFP signal of wild-type E. coli, primary screen, bacterial rRNA inhibitor project, GFP/RFP fluorescence, OD600, single point; E. coli WT GFP vs humanized-ribosome RFP mutants, 24 h; stronger effect = lower value; DMSO median 0, no signal -100; GFP signal change (wild-type ribosome), % (test concentration not listed); hit rate 1.6% among 350,000; AID 720706, 2013;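 active = significant combined selectivity score with lowered wild-type GFP, culture density cut under 30%, mutant RFP and density less affected; inactive = any of these conditions unmet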; note: one replicate is shown; some compounds called inactive have numbers as strong as hits
Calb FLC: C. albicans growth inhibition with fluconazole, primary screen, CaCi-2 strain, Alamar Blue fluorescence | AID 1979, 2009 | growth inhibition, % (concentration not given with the values) | C. albicans CaCi-2 (fluconazole-resistant clinical isolate) + fluconazole, 48 h | hit rate 0.57% among 300,000;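 active = most replicates above 75%; inconclusive = exactly half above 75%; inactive = most below 75%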;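 note: all wells also contain fluconazole at 8 µg/ml as a sub-toxic cotreatment; 0% = median of DMSO wells and 100% = median of geldanamycin control wells; wells of about 8 µL received 7.5 nL stock; the first replicate is given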
MLL AF4-AF9 inh: inhibitors of AF4 peptide binding to AF9, primary screen, biochemical, AlphaScreen, biotin-AF4 peptide, FLAG-AF9, single point | inhibition, % at 10 µM | hit rate 0.47% among 350,000;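 active = every replicate reaching a set inhibition limit, whatever the replicate mean, cut at about 25% in these data; inconclusive = mean inhibition reaches that limit but some replicates miss it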;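 note: 0% = plate neutral control median and 100% = total signal loss; the record names both 10 and 1 µM as test concentration; the first replicate is given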
Target sequence (P42568 whole entry, looked up): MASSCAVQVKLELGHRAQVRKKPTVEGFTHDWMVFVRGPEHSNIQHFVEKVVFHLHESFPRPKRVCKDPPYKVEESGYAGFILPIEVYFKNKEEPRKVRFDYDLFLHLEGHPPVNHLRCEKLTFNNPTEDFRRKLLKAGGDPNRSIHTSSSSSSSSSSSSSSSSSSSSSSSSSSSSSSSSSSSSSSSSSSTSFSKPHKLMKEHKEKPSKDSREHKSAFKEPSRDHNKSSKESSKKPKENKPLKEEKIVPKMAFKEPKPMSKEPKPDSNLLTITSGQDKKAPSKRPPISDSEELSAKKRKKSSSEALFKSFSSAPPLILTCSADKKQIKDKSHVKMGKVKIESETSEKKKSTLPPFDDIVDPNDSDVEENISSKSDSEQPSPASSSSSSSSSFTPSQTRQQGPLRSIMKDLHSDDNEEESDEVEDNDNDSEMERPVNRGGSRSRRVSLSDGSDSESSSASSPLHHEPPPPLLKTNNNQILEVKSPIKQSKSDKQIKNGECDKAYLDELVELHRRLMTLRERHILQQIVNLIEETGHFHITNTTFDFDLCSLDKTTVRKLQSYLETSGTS
RanGTP-Impb inh: inhibitors of RanGTP-importin-beta interaction, primary screen, biochemical, FRET, CFP-Ran, YFP-importin-beta, homogeneous; Ran GTPase (GTP-bound) - importin-beta complex; cell-free CFP-Ran/YFP-importin-beta FRET ratio; inhibition, % (no concentration beside the values); hit rate 1.1% among 300,000;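 active = most replicates above 15%; inconclusive = exactly half above 15%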;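 note: 0% = DMSO wells and 100% = Ran loaded with GDP instead of GTP; wells of about 40 µL received 100 nL stock; the first replicate is given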
ALR inh: inhibitors of human ALR sulfhydryl oxidase, primary screen, biochemical, H2O2 detection, HRP-luminol luminescence, single point; FAD-linked sulfhydryl oxidase ALR (Homo sapiens), P55789; purified ALR, DTT oxidation; hit rate 3.8% among 290,000; inhibition, % (no concentration beside the values);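 active = mean and each replicate at 75% or more; inconclusive = only one of the two met; inactive = neither met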;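 note: stock transfer was 7.5 nL into about 7.5 µL; 0% = neutral wells and 100% = wells with inactivated enzyme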
Target sequence (P55789 whole entry, looked up): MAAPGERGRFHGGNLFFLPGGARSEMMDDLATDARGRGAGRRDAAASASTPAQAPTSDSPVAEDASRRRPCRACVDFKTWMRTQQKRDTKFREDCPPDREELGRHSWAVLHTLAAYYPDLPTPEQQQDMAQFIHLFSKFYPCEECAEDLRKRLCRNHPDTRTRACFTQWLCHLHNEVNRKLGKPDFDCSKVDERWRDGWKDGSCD
Beta cell apopt: inhibitors of cytokine-induced beta cell apoptosis, primary screen, luminescence; protection from apoptosis, % (test concentration not listed); hit rate 0.8% among 300,000; INS-1E cytokine-induced death, ATP luminescence, 48 h; percent of positive-control rescue, neutral wells zero;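 active = all replicates at 75% or more, or half of them and the mean; inconclusive = half reach 75% but not the mean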;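 note: 0% = cytokine-treated negative control wells and 100% = positive control rescue; higher means more ATP so stronger rescue from cytokine killing; wells of about 40 µL received 100 nL stock; the first replicate is given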
T cruzi repl: inhibitors of intracellular T. cruzi growth, primary screen, luminescence, NIH3T3 host cells; T. cruzi beta-gal in NIH3T3, 90 h; inhibition, % (no concentration beside the values); hit rate 1.4% among 300,000;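 active = mean inhibition across valid replicates above about 55%, limit read from the data; inconclusive = mean below that limit but half or more replicates reach it; inactive = mean below it, under half of replicates reach it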;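 note: signal also drops with host cell toxicity which is not excluded here; 0% = plate median of DMSO wells and 100% = zero luminescence signal; higher percent means less beta-gal luminescence so fewer parasites; stock transfer was 50 nL into about 50 µL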
rRNA inh HTS OD600: second read-out of rRNA inh HTS, no call of its own (marks repeat the call); OD600 change, %; measured here: OD600 growth;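 optical density of the mix in the first replicate; 0 = DMSO median and -100 = no signal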
rRNA inh HTS RFP: further read-out of rRNA inh HTS, marked with its call; RFP signal change, %; measured here: RFP humanized mutant strains;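 first replicate; 0 = DMSO median and -100 = no signal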
Starred values were filed as active, the others as inactive; i = inactive; ? = inconclusive; . = not tested or not shown.

structure,MLL AF4-AF9 inh,ALR inh,Beta cell apopt,RanGTP-Impb inh,rRNA inh HTS,rRNA inh HTS OD600,FGF22 binding,T cruzi repl,rRNA inh HTS RFP,Calb FLC
CCOC(=O)CNC(c1ccccc1)c1cc(Br)ccc1NC(=O)CCN1CCOCC1 (stereo not drawn),0.6,.,-11,1.1,6,3,i,?,1.1,111*
COc1ccc(C(=O)CNc2ccc(C)cc2C)cc1,-5.1,1,.,3.1,-5,-15,i,-1,0.0,2
COc1cccc(-c2cc(C(=O)Nc3cnn(Cc4ccc(F)cc4)c3)no2)c1,.,3,-4,6.4,.,.,.,-20,.,31
CCC1CCCCN1Cc1nc2c(c(=O)n(C)c(=O)n2C)n1Cc1ccccc1 (stereo not drawn),2.2,-5,1,3.7,3,7,i,20,-2.7,-3
CC(C)(CO)CNC1CCCN(C2Cc3ccccc3C2)C1 (stereo not drawn),1.9,.,.,4.8,13,14,i,66*,1.2,-1
CC(NC(=O)COC(=O)c1ccc(S(=O)(=O)N2CCOCC2)cc1)c1ccccc1 (stereo not drawn),-1.7,.,-4,.,5,5,i,.,3.1,.
CC(C)Oc1ccc(S(=O)(=O)N2CCCCC2)cc1NC(=O)C1CSC2(C)CCC(=O)N12 (stereo not drawn),9.5,.,1,-0.2,-8,-17,i,26,1.9,2
CC(=O)c1c(C)oc2ccc(NS(=O)(=O)c3ccccc3)cc12,0.1,.,0,-3.1,-11,-16,i,-2,0.5,5
Nc1nnc(SCc2ccc(Cl)cc2)s1,.,-6,-16,5.7,.,.,.,-12,.,-12
CCOC(=O)c1c(C)c(C(=O)NCCCN2CCCC2=O)c(C)n1CC,-6.1,-3,-6,?,16,9,i,-10,-2.8,-5
CCOc1ccc(NC(=O)c2sc3nc4n(c(=O)c3c2C)CCC4)cc1,-1.5,-2,1,1.3,10,4,i,-11,0.9,15
O=C(Oc1cccc(-n2cnnn2)c1)c1sc2ccccc2c1Cl,.,.,-1,3.8,.,.,.,-12,.,-5
FCCCOc1ccc(-c2nccc(-c3ccccn3)n2)cc1,0.8,-6,1,-0.8,-4,4,i,-13,0.5,3
CC(C)(C)S(=O)(=O)/C(C#N)=C/c1sccc1C1OCCO1,0.7,-2,-3,-3.2,.,.,i,-3,.,3
O=C(CSc1nnc(SCc2ccc(Cl)cc2)s1)N/N=C/c1ccc(Cl)cc1Cl,0.8,1,3,1.5,9,9,i,-15,1.7,-5
CCC(C)[C@H](NC(=O)N1CCC(C)CC1)C(=O)O (stereo partly drawn),0.4,.,-4,2.7,12,3,.,-10,-2.8,-7
CCC(=O)Nc1cc(C)c(NC(=O)C23CC4CC(CC(C4)C2)C3)cn1,.,-17,-4,1.4,.,.,.,-7,.,0
CC(=O)c1ccc(NC(=O)CSc2nnc(-c3ccco3)o2)cc1,-0.7,-17,1,2.9,6,10,i,-1,-2.0,-13
O=C(NC1CCN(c2ncccn2)CC1)c1cccc(F)c1,-4.4,.,3,3.2,1,0,i,-7,-1.7,5
C=CCc1c(C)nc(N2CCSCC2)[nH]c1=O,-1.7,-7,-2,-3.8,.,.,i,-2,.,-12

Continued.
structure,MLL AF4-AF9 inh,ALR inh,Beta cell apopt,RanGTP-Impb inh,rRNA inh HTS,rRNA inh HTS OD600,FGF22 binding,T cruzi repl,rRNA inh HTS RFP,Calb FLC
COC(=O)/C=C1/SC(=Nc2ccc(C)cc2C)NC1=O,.,.,-12,1.6,.,.,.,-9,.,-3
O=C(NC1CCCC1)C(c1ccncc1)N(CC1CCCO1)C(=O)Cn1nnc(-c2cccs2)n1 (stereo not drawn),.,-5,.,2.2,.,.,.,16,.,-10
CCNc1nc(NCC)n2c(SCc3ccc(F)cc3)nnc2n1,.,-6,-8,0.3,.,.,.,-2,.,-16
CCOC(=O)C(=O)/C(=C\N(C)C)c1onc(-c2c(Cl)cccc2Cl)c1C(=O)OC,.,0,-8,1.3,.,.,.,5,.,-29
Nc1cccc2c1C(=O)N(C(=O)c1ccco1)C2=O,-2.1,15,-6,26*,12,20,i,-12,8.4,0
CCC(Sc1nccn1C)C(=O)Nc1ccc(Cl)cn1 (stereo not drawn),-1.8,2,0,.,14,13,i,-8,-0.3,-4
COc1ccccc1CN(C)c1nnnn1-c1ccccc1,1.2,-1,-4,5.4,-12,-7,i,3,4.3,-12
O=C(Nc1cccnc1)c1ccc(COc2ccccc2Cl)o1,.,5,7,4.1,.,.,.,-37,.,23
CCNC(=S)Nc1cccc(Cl)c1C,.,1,-2,?,.,.,.,-2,.,-1
CCN(CC)CC1C(=O)N(c2ccc(OC)cc2)C1c1ccccc1 (stereo not drawn),8.7,-1,-7,-2.9,7,8,i,46,2.4,-6
Cn1ccnc1SCc1ccc(Cl)cc1Cl,0.2,.,-6,2.8,-2,0,i,-18,-8.3,-4
Cc1cc(C(=O)Nn2c(-c3ccc(Br)cc3)nc3ccccc3c2=O)ccc1[N+](=O)[O-],4.3,-11,4,0.7,2,-3,i,16,1.0,-14
Cc1ccc(C(=O)NCCCNC(=O)Cc2ccc(Cl)cc2)cn1,2.4,.,-9,-2.2,1,2,i,3,-1.1,-4
Cc1ccnc(NC(=O)CCCc2ccccc2)c1,1.1,3,-18,-3.4,.,.,i,-19,.,9
O=C(CN1C(=O)c2ccccc2S1(=O)=O)NCc1c(F)cccc1F,-2.5,1,-5,-3.0,4,8,i,-6,-1.4,-1
Cc1ccc(CNC(=O)c2cnccn2)cc1,.,-7,-8,-1.6,.,.,.,-4,.,9
COc1ccc2[nH]c(=O)c(CN(Cc3cccs3)C(=S)NCC3CCCO3)cc2c1 (stereo not drawn),-15,-1,1,0.0,-3,-4,i,24,1.0,5
CCOC(=O)c1cc2ccccc2nc1C,.,9,-2,-1.4,.,.,.,-20,.,-4
Clc1cccc(CN2C3=NCCCN3c3ccccc32)c1,0.1,0,0,4.3,-6,-4,i,2,-3.7,-24
CCC(C)NC(=O)C1CCCCN1S(=O)(=O)c1ccc(F)cc1 (stereo not drawn),.,-17,-6,-2.3,.,.,.,-14,.,-6

New compounds follow:
structure,MLL AF4-AF9 inh,ALR inh,Beta cell apopt,RanGTP-Impb inh,rRNA inh HTS,rRNA inh HTS OD600,FGF22 binding,T cruzi repl,rRNA inh HTS RFP,Calb FLC
O=C(OCC(=O)c1ccc[nH]1)C1=COCCO1,0.4,-8,2,.,8,13,i,.,1.0,.
COC(=O)c1ccccc1NC(=O)NCCc1ccc(OC)c(OC)c1,0.1,-4,-7,2.3,-23,-34,i,-7,-6.8,0
CCOc1ccccc1NC(=O)CN1C(=O)COc2ccc(C)cc21,3.5,.,-7,1.3,4,1,i,-3,-0.8,0
CCC(=O)Nc1c(C)nn(-c2ccc(C)c(C)c2)c1C,4.1,-4,-6,?,10,-4,i,-9,1.8,?
Cc1ccc(-c2cc(C(=O)NCc3ccco3)no2)cc1,-1.3,-3,5,-1.7,7,-2,i,-13,-2.7,-15
COc1cccc(N2CCN(C(=O)c3cccc(N4C(=O)NC5CC4(C)Oc4c(OC)cccc45)c3)CC2)c1 (stereo not drawn),1.9,15,-2,-1.2,0,-1,i,-9,0.2,1
CN1/C(=C\C=C(/C#N)C(=O)Nc2ccc(Cl)cc2)C(C)(C)c2ccccc21,.,-6,5,28*,.,.,.,6,.,-2
COc1cc(NC(=O)CCNS(=O)(=O)c2cc(Br)cnc2N)cc(OC)c1,-2.3,-3,-6,5.6,4,-26,i,7,-1.3,0
COc1cc(C(c2nnnn2C(C)(C)C)N2CCN(c3nc4ccccc4s3)CC2)ccc1O (stereo not drawn),.,6,-5,2.9,.,.,.,-1,.,32
CC(C)[C@H](NC(=O)c1ccccc1)C(=O)OCC(=O)N1CC(=O)Nc2ccccc21,.,-3,-2,-2.2,.,.,.,-4,.,-3
CCOC(=O)c1ccccc1NC(=S)N1CCCCC1,5.6,3,0,1.7,2,2,i,-6,-2.7,-11
CCN(CC)C(=O)C12CC3CC(CC(Br)(C3)C1)C2,-1.7,.,-4,1.3,.,.,.,2,.,-1
CSc1c(CC(=O)Nc2ccccc2)n(C)c2ccccc12,0.8,.,.,-3.4,-3,20,i,8,0.3,0
CN1CCN(/N=C/c2ccc(Cl)c(Cl)c2)CC1,.,6,-11,6.8,.,.,.,36,.,-5
CC1(C)CC(NC(=S)NCc2ccco2)CC(C)(C)N1,-0.9,-16,-2,6.3,17,15,i,-21,2.2,-9
CC(C)(C)C(=O)NC(=S)Nc1cc(C(=O)O)ccc1Cl,.,.,-3,3.8,.,.,.,-13,.,18
Cc1ccc2c(c1)cc(C)c1nnc(SCC(=O)NCc3ccco3)n12,-33,4,3,1.0,2,-1,i,8,5.0,-3
CCCCN(CC)CCCNC(=O)c1ccc2c(c1)N(CC)C(=O)c1ccccc1S2(=O)=O,2.7,.,-9,-1.8,10,6,i,43,-0.5,5
COc1cccc2sc(Nc3nnc(-c4cccs4)o3)nc12,.,33,68,-0.3,.,.,.,65*,.,-7
CC(C)=CCC/C(C)=C/CN(CC(C)O)CC(C)O (stereo not drawn),.,-5,2,5.1,.,.,.,1,.,-5
Cc1cc(C)n(-c2nncn2/N=C/c2ccccc2F)n1,.,-1,-7,2.1,.,.,.,3,.,-5
O=C(CN1CCN(S(=O)(=O)c2ccc(F)cc2)CC1)NCc1cccs1,1.2,-4,-1,-2.2,2,-2,i,-7,-0.5,3

Screening results (PubChem BioAssay)

The list is partial; rates above refer to the full screens.
